Source: PubChem BioAssay
PABP polyA inh: PABP poly(A) RNA binding inhibitors, primary screen, biochemical, fluorescence polarization, uHTS; Polyadenylate-binding protein 1 (Homo sapiens), P11940; inhibition, % at 35 µM; 290,000 tested, 1% active; AID 2014, 2009;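 active = 50% or more with normal probe brightness, or confirmed in later tests; inconclusive = above 50% with abnormal brightness, or retests that disagree; inactive = below 50% or failed in later tests; about a fifth of its hits are not listed in these tables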;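 note: calls also rest on retests at 20 µM and on dose response follow-up; controls were probe without protein and protein plus probe with vehicle; some compounds called inactive have numbers as strong as hits; many hits fall short of the cut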
Target sequence (P11940 whole entry, looked up): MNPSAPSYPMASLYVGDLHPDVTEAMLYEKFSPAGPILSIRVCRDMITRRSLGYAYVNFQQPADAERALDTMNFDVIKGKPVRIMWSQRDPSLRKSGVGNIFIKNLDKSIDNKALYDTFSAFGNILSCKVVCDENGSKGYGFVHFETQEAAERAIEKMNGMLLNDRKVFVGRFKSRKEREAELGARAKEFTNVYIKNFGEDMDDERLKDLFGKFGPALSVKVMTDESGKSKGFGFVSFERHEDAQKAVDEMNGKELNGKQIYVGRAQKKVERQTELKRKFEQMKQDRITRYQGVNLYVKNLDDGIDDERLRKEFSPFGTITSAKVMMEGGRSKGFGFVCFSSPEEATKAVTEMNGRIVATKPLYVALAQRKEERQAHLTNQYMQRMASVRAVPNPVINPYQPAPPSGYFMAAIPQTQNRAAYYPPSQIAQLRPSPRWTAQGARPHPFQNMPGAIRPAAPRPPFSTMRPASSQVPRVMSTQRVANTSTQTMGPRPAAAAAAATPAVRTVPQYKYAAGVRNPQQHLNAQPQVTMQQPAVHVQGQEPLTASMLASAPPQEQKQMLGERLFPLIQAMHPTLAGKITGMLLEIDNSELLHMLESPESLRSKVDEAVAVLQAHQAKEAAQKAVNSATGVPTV
eIF4H inh: human eIF4H binding inhibitors, primary screen, translation initiation inhibitor project, biochemical, uHTS, fluorescence polarization. Eukaryotic translation initiation factor 4H (Homo sapiens), Q15056. eIF4H fluorescence polarization binding assay. inhibition, % at 35 µM. 290,000 tested, 0.94% active;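 active = 50% or more with normal probe brightness, or confirmed in later tests; inconclusive = above 50% with abnormal brightness, or retests that disagree; inactive = below 50% or failed in later tests; about a fifth of its hits are not listed in these tables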;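 note: calls also rest on retests at 20 µM and on dose response follow-up; 0% = protein and probe with vehicle and 100% = probe without protein; strong numbers were not always called active; many hits fall short of the cut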
UUG fidelity: modulators of yeast start codon fidelity, primary screen, whole organism, S. cerevisiae, single point, plate reader; S. cerevisiae UUG-firefly luciferase reporter, luminescence/redox ratio; activity score, % at 18.7 µM; AID 602363, 2012; 350,000 tested, 0.13% active;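 active = replicate mean at a twofold rise or more, about +100% in these data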;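 note: firefly luciferase made from a UUG start codon reports start codon fidelity; reporter light over untreated wells divided by growth signal over untreated wells; some hits fall short of that in this replicate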
Rce1 inh: yeast Rce1p protease inhibitors, primary screen, biochemical, fluorescence, cell-free homogeneous; CAAX prenyl protease 2 (Saccharomyces cerevisiae (strain ATCC 204508 / S288c)), Q03530; yeast membranes, quenched prenylated peptide cleavage fluorescence; calls only; 290,000 tested, 0.27% active;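 active = fall in fluorescence gain of 50% or more versus controls, with final raw signal at or below 3038400; inconclusive = same 50% fall but final raw signal above 3038400; inactive = fall in fluorescence gain under 50%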;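 note: plate controls were neutral control wells for no effect and wells lacking membranes for full effect; tested at 10 µM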
Target sequence (Q03530 whole entry, looked up): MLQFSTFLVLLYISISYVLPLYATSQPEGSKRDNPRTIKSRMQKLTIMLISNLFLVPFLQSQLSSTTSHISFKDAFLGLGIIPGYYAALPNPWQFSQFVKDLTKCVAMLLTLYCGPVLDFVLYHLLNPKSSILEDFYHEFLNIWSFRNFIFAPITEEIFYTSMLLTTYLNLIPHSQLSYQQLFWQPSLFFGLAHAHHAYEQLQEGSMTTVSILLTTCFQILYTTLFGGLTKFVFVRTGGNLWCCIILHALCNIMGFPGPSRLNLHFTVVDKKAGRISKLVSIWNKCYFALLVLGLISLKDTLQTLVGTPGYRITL
MT1-MMP act inh: blockers of MT1-MMP proenzyme processing, primary screen, HT1080 RFP-PRO-GFP cells, GFP/RFP fluorescence; GFP/RFP ratio change, % at 20 µM; 360,000 tested, 0.061% active; GFP/RFP ratio fluorescence, overnight; percent of plate control window, DMSO zero; AID 651647, 2012;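 active = GFP/RFP ratio change of at least 30% with cell ATP level not reduced by more than half and red fluorescence within 50% of control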; note: strong numbers were not always called active
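Compound: 20 µM single dose, 1% DMSO / System: HT1080 RFP-PRO-GFP cells / Controls: DMSO and RFP-L50D-GFP cell wells / Read-out basis: GFP/RFP fluorescence ratio / Schedule: overnight compound exposure at 37 °C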
CSC inhib: cancer stem cell viability inhibitors, primary screen, luminescence. 300,000 tested, 1.1% active. cancer stem cell-like cells viability. inhibition, % at 7.5 µM. AID 2717, 2010;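 active = mean at 75% or more and at least half the replicates too; inconclusive = mean and replicates disagree; tested in HMLE shEcad cells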;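 note: 0% = median of negative and 100% = median of positive control wells; the first replicate is given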
HIV Env fusion: inhibitors of HIV-1 Env-driven cell-cell fusion, primary screen, HeLa-JRFL effector, CEM21 target cells, luciferase | inhibition, % at 12.3 µM | 360,000 tested, 1.1% active | AID 651610, 2012;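 active = mean replicate inhibition score of at least 50 and every replicate individually at or above 50; inconclusive = only one of the two criteria met; inactive = mean below 50 and not all replicates reaching 50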;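 note: 0% = plate neutral controls and 100% = maraviroc near 300 nM; one replicate is shown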
eIF4H inh retest: recorded beside eIF4H inh, whose call it bears; inhibition, %; compound at 20 µM; confirmation average;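 mean of two retest wells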
PABP polyA inh retest: also measured in PABP polyA inh; calls as there; inhibition, %; compound at 20 µM; confirmation repeats;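 mean of two retest wells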
MT1-MMP act inh RFP: also measured in MT1-MMP act inh; calls as there; RFP signal change, %; measured here: RFP expression control read;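 0 = vehicle wells; hits needed this value within 50% of zero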
Active calls of the source: *; i = inactive; ? = inconclusive; nt = no result given.

SMILES | PABP polyA inh | eIF4H inh | UUG fidelity | Rce1 inh | MT1-MMP act inh | MT1-MMP act inh RFP | CSC inhib | HIV Env fusion | others
O=C(O)CCC(=O)Nc1ccc(/C=C/C(=O)C2CC2)cc1 | -2 | 6 | nt | i | 0 | 2 | -14 | 3
Cc1ccc(NS(=O)(=O)c2cc(Br)cnc2N)c(Cl)c1 | 0 | 82 | -16 | i | -2 | 2 | 25 | -4 | eIF4H inh retest=-4;PABP polyA inh retest=16
Cc1ccc(C(=O)NNC(=O)CSc2nnc3c(n2)[nH]c2ccc(F)cc23)cc1 | 2 | 54 | -10 | i | 4 | 0 | nt | -24 | eIF4H inh retest=0;PABP polyA inh retest=28
Cc1coc2c(C)c3oc(=O)c(CCC(=O)NCCCn4ccnc4)c(C)c3cc12 | 3 | 0 | -5 | i | 5 | 4 | -8 | nt
O=C(COc1ccc(S(=O)(=O)N2CCCC2)cc1)NCc1cccnc1 | 10 | 8 | -10 | i | 2 | 2 | -24 | 5
COc1ccc(S(=O)(=O)N2CCOC2CNC(=O)C(=O)NCc2ccncc2)cc1 (stereo not drawn) | 7 | 1 | -21 | i | 0 | 8 | -12 | -9
O=C(COC(=O)CCN1C(=O)c2cccc([N+](=O)[O-])c2C1=O)NC1CCS(=O)(=O)C1 (stereo not drawn) | -2 | 0 | nt | i | 0 | 3 | -11 | 5
CNC(=O)COC(=O)c1cc(-c2ccccc2)nn1-c1ccccc1 | 3 | -6 | -2 | i | 4 | 4 | -4 | -3
COc1ccc(-n2nc(C(=O)NCC(=O)N3CCN(c4ccccc4)CC3)c3ccccc3c2=O)cc1OC | -2 | 2 | -8 | i | 3 | 0 | -11 | -32
O=C(CCCCCCCCCCC(=O)NCc1cccnc1)NCc1cccnc1 | 10 | 2 | nt | i | 6 | 1 | 72 | 7
O=C1OC(c2cccs2)=N/C1=C\c1ccc(-c2cccc(Cl)c2)o1 | 5 | 1 | -8 | i | 4 | 8 | 4 | -2
Cc1ccc(OCCNC(=O)CCNC(=O)c2ccc(Cl)cc2)cc1 | nt | nt | -9 | nt | -1 | -5 | nt | 2
CCOC(=O)c1ccccc1NS(=O)(=O)c1cnn(CC)c1C | -15 | -2 | -15 | i | -3 | 0 | 4 | 22
O=C(CCc1ccccc1Cl)Nc1ccc(S(=O)(=O)N2CCOCC2)cc1 | nt | nt | -8 | i | 1 | 1 | -5 | -8
O=C(NCCCN1CCCC1=O)C1CCN(S(=O)(=O)c2ccc(Cl)cc2)CC1 | nt | nt | 1 | nt | 1 | 4 | nt | 0
CCCCOC(=O)c1ccc(NC(=O)c2ocnc2C)cc1 | -2 | -4 | 5 | i | -1 | -4 | 0 | nt
COc1ccc(CN2CCNC(=O)C2CC(=O)NC2CCCC2)cc1OC (stereo not drawn) | 7 | -11 | -28 | i | -8 | 4 | 11 | -8
Cc1c(C(=O)Nc2ccc(F)cc2)oc2ccc(S(=O)(=O)N3CCC4(CC3)OCCO4)cc12 | -4 | 2 | 4 | i | -3 | -7 | -8 | nt
CSc1ccc(S(=O)(=O)N2CCC(C(=O)Nc3cccnc3)CC2)cc1 | -9 | -7 | -12 | i | 4 | 2 | -2 | -17
NC(=O)c1oc2ccccc2c1NC(=O)c1ccc([N+](=O)[O-])o1 | -3 | -7 | -15 | i | -3 | -16 | nt | -4
CCN(CC)S(=O)(=O)c1ccc2c(c1)c(=O)c(C(=O)NCCCN(C)c1ccccc1)cn2C | -1 | -9 | 18 | i | 7 | 1 | 10 | -16
CCNC(=O)COC(=O)c1cc(S(=O)(=O)N2CCCCC2)ccc1C | 5 | -4 | -4 | i | 0 | 3 | -1 | 1
O=C(CN1CCCCC1)N1CCCc2c1c(=O)oc1ccc(OCc3ccccc3)cc21 | 6 | 8 | 3 | i | 2 | -2 | 8 | -39
CCn1ccnc1CN1CCN(CC=C(C)C)C(CCO)C1 (stereo not drawn) | -1 | 6 | 11 | i | 1 | 8 | nt | 12
COc1ccccc1/C=C/C(=O)NCC(=O)N/N=C/c1ccc2c(c1)OCO2 | -5 | -3 | nt | i | -1 | 4 | -11 | 3

Overlap with the part before: six entries; new compounds follow.
SMILES | PABP polyA inh | eIF4H inh | UUG fidelity | Rce1 inh | MT1-MMP act inh | MT1-MMP act inh RFP | CSC inhib | HIV Env fusion | others
NC(=O)c1oc2ccccc2c1NC(=O)c1ccc([N+](=O)[O-])o1 | -3 | -7 | -15 | i | -3 | -16 | nt | -4
CCN(CC)S(=O)(=O)c1ccc2c(c1)c(=O)c(C(=O)NCCCN(C)c1ccccc1)cn2C | -1 | -9 | 18 | i | 7 | 1 | 10 | -16
CCNC(=O)COC(=O)c1cc(S(=O)(=O)N2CCCCC2)ccc1C | 5 | -4 | -4 | i | 0 | 3 | -1 | 1
O=C(CN1CCCCC1)N1CCCc2c1c(=O)oc1ccc(OCc3ccccc3)cc21 | 6 | 8 | 3 | i | 2 | -2 | 8 | -39
CCn1ccnc1CN1CCN(CC=C(C)C)C(CCO)C1 (stereo not drawn) | -1 | 6 | 11 | i | 1 | 8 | nt | 12
COc1ccccc1/C=C/C(=O)NCC(=O)N/N=C/c1ccc2c(c1)OCO2 | -5 | -3 | nt | i | -1 | 4 | -11 | 3
Cc1ccc2nc(Cl)c(-c3ccccc3)cc2c1 | nt | nt | -18 | i | 1 | 0 | 16 | -20
Clc1cccc2sc(-c3nnc(-c4ccccc4)o3)c(Cl)c12 | nt | nt | -27 | i | 4 | 4 | 3 | nt
CC1Cc2ccccc2N1S(=O)(=O)c1cccc(C(=O)c2nccn2C)c1 (stereo not drawn) | -11 | -4 | -19 | i | 2 | -7 | 5 | nt
COC(=O)c1ccc(CN2CCC(Oc3cccc(C(=O)N4CCCC4)c3)CC2)cc1 | -5 | -3 | -2 | i | 8 | -8 | 9 | 4
O=S(=O)(Nc1cc2nc3ccccc3nc2n1Cc1ccccc1)c1ccc(Cl)cc1 | -2 | 5 | nt | i | -62 | -4 | 112* | nt
COc1ccc(CCNC(=S)Nc2ccccc2)cc1 | 2 | 7 | -23 | i | 4 | 0 | 3 | 1
CC(=O)NC(Cc1ccccc1)C(=O)OCC(=O)c1ccccc1 (stereo not drawn) | -2 | -2 | 1 | i | 4 | 7 | 7 | 11
CC1CCCN(S(=O)(=O)c2ccc(NC(=O)Cc3ccc(S(=O)(=O)N4CCOCC4)s3)cc2)C1 (stereo not drawn) | nt | nt | nt | i | 6 | -4 | -7 | nt
Cc1nn(-c2ccccc2)c2sc(C(=O)NC3CC3)cc12 | 11 | -3 | -18 | i | -2 | -7 | 15 | -44
COCCC(=O)N1CCC(Oc2ccc(C(=O)N(C)Cc3cc(C)no3)cc2)CC1 | 0 | -8 | -6 | i | 1 | 0 | -15 | 4
COCCCNC(=O)c1ccccc1SC | -3 | 0 | -15 | i | 0 | -5 | -22 | nt
Cc1cc(N2CCC(C(=O)Nc3ccc(F)cc3)CC2)nc(-c2ccccc2)n1 | -5 | -4 | -21 | i | 5 | -1 | 21 | nt
Cc1ccc(NC(=O)c2cc(S(=O)(=O)N3CCC4(CC3)OCCO4)ccc2F)cc1 | 0 | 2 | -4 | i | -3 | -6 | -10 | -14
O=C(O)CNC(=O)c1ccc(Oc2c(F)c(F)c(Oc3ccc(C(=O)NCC(=O)O)cc3)c(F)c2F)cc1 | 11 | -4 | 9 | i | -1 | 1 | -6 | 4
Cn1c(=O)cc(OCCCC(=O)Nc2cccnc2)c2ccccc21 | 29 | -3 | 8 | i | 13 | 14 | -10 | -57
COc1cc(CNn2c(C)n[nH]c2=S)cc(Cl)c1OCc1ccc(F)cc1 | 0 | -3 | -12 | i | 9 | -4 | nt | nt
CCCN1C(=O)c2cccc3c(N4CCCCC4)ccc(c23)C1=O | -19 | ? | nt | i | -105 | 0 | 49 | nt
CS(=O)(=O)N(CC(=O)N1CCC(C(N)=O)CC1)c1ccc(Cl)c(C(F)(F)F)c1 | 0 | 2 | -23 | i | 6 | 5 | -5 | 3
CC[C@]12c3[nH]c4ccc(Cl)cc4c3CCN1C(=O)[C@@H](CC(=O)NCC13CC4CC(CC(C4)C1)C3)C[C@@H]2C(=O)N1CCN(C(=O)c2ccco2)CC1 | nt | nt | -11 | nt | -7 | -13 | nt | 31
O=C(NCCCN1CCCC1=O)c1cccnc1 | 6 | -11 | -2 | i | -2 | 0 | -23 | -10
CC1CC(=O)Nc2ccccc2N1C(=O)Cn1cnc2ccccc2c1=O (stereo not drawn) | nt | nt | -4 | nt | 1 | 3 | -11 | 2
O=C(O)CSc1nnc(Cc2ccccc2)n1Cc1ccccc1 | 0 | -3 | -20 | i | 2 | 1 | -5 | -6
Cc1cccc(C)c1NC(=O)C1CCCN(CCCc2ccccc2)C1 (stereo not drawn) | 6 | -3 | -10 | nt | -1 | 0 | nt | nt
Cc1[nH]c(=O)c(C(=O)/C=C/c2ccccc2)c2c1CCCC2 | 7 | -4 | -9 | i | -18 | -23 | 38 | i
N#CCCCc1cc2cc(F)ccc2cn1 | nt | nt | 5 | nt | 3 | 5 | -17 | -43
SMILES | PABP polyA inh | eIF4H inh | UUG fidelity | Rce1 inh | MT1-MMP act inh | MT1-MMP act inh RFP | CSC inhib | HIV Env fusion | others
CSCCC(NC(=O)COc1ccccc1)C(=O)N1CCOCC1 (stereo not drawn) | nt | nt | nt | nt | -3 | 2 | -8 | 5
NC(=O)c1cc([N+](=O)[O-])ccc1Nc1ccccc1 | nt | nt | -17 | nt | 5 | 1 | 5 | -1
CCc1cccc(CC)c1N(COC)C(=O)Cn1c(C(C)O)nc2ccccc21 (stereo not drawn) | 0 | -5 | nt | nt | 3 | 2 | -17 | nt
COc1ccc(C(=O)Nc2ccc(Cl)c(Cl)c2)c(OC)n1 | 1 | -3 | -14 | i | -6 | -1 | 6 | nt
CCOC(CC(=O)NNC(=O)c1c(-c2ccccc2Cl)noc1C)OCC | 0 | 4 | nt | i | 0 | 2 | -10 | 7
Cn1c(SCC(=O)NCc2ccco2)nnc1-c1ccccc1 | 0 | -2 | -10 | i | 0 | 1 | -3 | nt
ClCC1CN(Cc2ccccc2Cl)CCO1 (stereo not drawn) | -1 | 1 | nt | i | 0 | 3 | -7 | 1
Cc1coc2cc3oc(=O)c(Cc4ccccc4)c(C)c3cc12 | -7 | -4 | nt | i | 2 | -2 | 18 | 7
COc1ccc(-c2cc(-c3ccco3)[nH]c(=O)c2C#N)cc1OC | 30 | 43 | -6 | i | -12 | 7 | -1 | -5

This is a subset. The share of hits here may be higher or lower than overall.
